TRPV1 PAM – potentiators of human vanilloid receptor 1 (TRPV1); TRPV1-expressing cells, Fluo-8 calcium influx, capsaicin EC20 potentiation; host cell line not named in the record; control for the full effect not named in the record; potentiation, % at 8.33 µM; 320,000 tested, 0.02% active; active means potentiation above 80%; inconclusive means 30% to 80%; inactive means below 30%; also: 0% is about no effect
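Cells expressing TRPV1 were dye-loaded with Fluo-8 and read kinetically: 10 s baseline, 3 min after compound (agonist portion), then 2 min after EC20 capsaicin (allosteric enhancer portion). Calcium-bound dye fluorescence at 480/520 nm.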
D2 ag – agonists of human D2 dopamine receptor (beta-arrestin). P14416. DiscoveRx PathHunter D2 beta-arrestin, luminescence, 90 min; 100% = 57 uM dopamine signal. activation, % (test concentration not listed). 360,000 tested, 0.084% active; in the data active = activation above about 40%; inconclusive = about 15% to 40%; inactive = below about 15%; also: compound concentration not given in the record; the text of the record calls up to 30% inactive
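Agonist mode: compounds alone added to overnight-plated D2 PathHunter cells for 90 min at 37 C, with 57 uM final dopamine (EC100) defining full response. Beta-arrestin recruitment detected by chemiluminescent reagent, read after 1 h at ambient temperature.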
PINK1 modulator – modulators of PINK1 expression; Potency, µM (series often up to 76.6 µM), for inactives: at the highest dose activation (PINK1 increase), most hits filed as activators; 410,000 tested, 0.2% active; PINK1 immunofluorescence, high-content cytometry, 24 h; active = well fitted activation curve with a large enough effect; inconclusive = small, poorly fitted or top-dose-only effect; inactive = flat fitted curve, though single readings scatter; cell line not stated here;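 also: potency is read from the fitted curve at half-maximal effect; % of control where 0% means no effect; nearly all actives have a fitted effect of over 65% in size; a mitochondrial uncoupler was the plate control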
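Stable cell line treated 24 h with compounds at 5 concentrations (CCCP controls), then fixed and immunostained for PINK1 plus nuclear and cell stains; PINK1 immunofluorescence quantified by laser-scanning microplate cytometry.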
Sfp inh – inhibitors of Bacillus subtilis Sfp phosphopantetheinyl transferase; Q9F4F7; Potency, µM, for the others: max response, negative = inhibition, usual class: inhibitors; 310,000 tested, 3.5% active; AID 1490; Biochemical Sfp PPTase activity, qHTS; active = well fitted inhibition curve with a large enough effect; inconclusive = small, poorly fitted or top-dose-only effect, or another doubt; inactive = no such curve, though single readings can be large or run the other way;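 also: the enzyme is Sfp with the accession as filed and its product quenches rhodamine fluorescence; potency is read from the fitted curve at half-maximal effect; 0% = enzyme reaction without inhibitor and -100% = no enzyme wells; top concentration of the series not given in the record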
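Compounds were incubated with enzyme (final 15 nM) for 15 min at room temperature before substrate addition started the reaction. Fluorescence at 525 nm excitation, 598 nm emission was recorded immediately and after 30 minutes.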
Six1-Eya2 inh – blocks human Six1 binding to Eya2; AlphaScreen GST-Six1/His-Eya2 binding, biochemical; active compounds read low; control for the full effect not named in the record; activity change, % (test concentration not listed); 360,000 tested, 0.56% active; in the data active = activity change below about -65%; inconclusive = about -30% to -65%; inactive = above about -30%; also: % is scaled to controls: 0 for no effect and ±100 for the full control effect
Target sequence (O00167 whole entry, looked up): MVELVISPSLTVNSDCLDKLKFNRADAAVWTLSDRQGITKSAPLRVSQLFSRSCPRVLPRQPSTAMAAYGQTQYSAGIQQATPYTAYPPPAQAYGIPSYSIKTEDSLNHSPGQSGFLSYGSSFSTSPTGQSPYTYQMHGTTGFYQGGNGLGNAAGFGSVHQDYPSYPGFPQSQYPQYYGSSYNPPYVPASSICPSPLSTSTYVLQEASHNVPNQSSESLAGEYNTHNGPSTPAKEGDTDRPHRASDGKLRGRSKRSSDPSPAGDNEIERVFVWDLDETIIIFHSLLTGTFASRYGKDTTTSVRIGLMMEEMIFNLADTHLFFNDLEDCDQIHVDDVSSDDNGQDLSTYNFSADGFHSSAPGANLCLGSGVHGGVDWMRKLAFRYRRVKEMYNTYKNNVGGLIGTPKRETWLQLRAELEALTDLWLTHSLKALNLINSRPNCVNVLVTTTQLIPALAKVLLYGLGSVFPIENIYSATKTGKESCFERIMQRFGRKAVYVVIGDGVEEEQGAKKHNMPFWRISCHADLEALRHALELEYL
Target sequence (Q15475 whole entry, looked up): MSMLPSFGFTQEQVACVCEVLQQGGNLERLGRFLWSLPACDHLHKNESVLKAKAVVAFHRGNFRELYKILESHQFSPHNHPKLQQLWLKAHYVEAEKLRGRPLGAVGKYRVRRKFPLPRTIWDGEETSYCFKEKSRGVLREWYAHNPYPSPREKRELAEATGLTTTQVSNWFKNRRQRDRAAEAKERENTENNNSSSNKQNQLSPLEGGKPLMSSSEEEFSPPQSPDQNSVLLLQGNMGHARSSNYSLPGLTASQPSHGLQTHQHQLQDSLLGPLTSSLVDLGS
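GST-Six1 + His-Eya2 (5X stock: 250/500 nM); Tris pH 8.0, 300 mM NaCl, 0.05% BSA, 0.02% Tween 20; GSH donor/Ni acceptor beads; 1 h 37 °C dark; AlphaScreen readout.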
CtBP-E1A blk – CtBP/E1A binding inhibition; 340,000 tested, 0.49% active; AlphaScreen GST-E1A/His-CtBP binding, 1536-well; active compounds read low; control for the full effect not named in the record; activity change, % (no concentration beside the values); in the data active means activity change below about -65%; inconclusive means about -30% to -65%; inactive means above about -30%; also: % is scaled to controls: 0 for no effect and ±100 for the full control effect
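Homogeneous bead-based format: GST-tagged E1A captured on glutathione donor beads, His-tagged CtBP on nickel acceptor beads; compounds precede bead addition by 2 h at 37 °C.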
D2 potentiator – human D2 receptor positive allosteric modulation; P14416; DiscoveRx D2 beta-arrestin cells, luminescence, 90 min; 100% = 57 uM dopamine signal; potentiation, % (concentration not given with the values); 360,000 tested, 0.23% active; AID 624464; active = potentiation of 50% or more; inconclusive = 30% to 50%; inactive = 30% or less;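 also: compound concentration not given in the record; tested on top of an EC20 dose of dopamine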
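PathHunter D2 cells, attached overnight at 37 deg C, received compound in DMSO plus dopamine at EC20 (50 nM final) for 90 min at 37 deg C. Beta-arrestin recruitment was read as luminescence after 1 h with detection reagent at ambient temperature.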
* hit, by the source's call; ? = inconclusive; / = no result given; & = joins results of further samples; [ ] = dose if it differs, or a comment.

1) CN(C)c1ccc(-c2nnc(-c3ccc(S(=O)(=O)C(F)F)cc3)o2)cc1
2) CCn1cnc2c1c(=O)[nH]c(=O)n2Cc1ccccc1
3) CCC(CO)Nc1ncnc2c1cnn2-c1ccc(Cl)cc1 (stereo not given)
4) O=C(CN(Cc1ccccc1Cl)C(=O)c1csnn1)NCc1ccc2c(c1)OCO2
5) Cc1c(C(=O)N/N=C/c2ccc(N3CCOCC3)cc2)nc2ccccn12
Screen / compound no.	1	2	3	4	5
TRPV1 PAM	-2	10	/	0	-2
D2 ag	-3.3	-0.3	3.9	-5.0	3.4
PINK1 modulator	7.3%	0.7%	1.1%	-1.1%	-0.3%
Sfp inh	1%	4%	-27%	14%	12%
Six1-Eya2 inh	7	-1	0	-7	0
CtBP-E1A blk	3	3	0	0	-16
D2 potentiator	-29	0	7	-7	3

6) Cc1ccc(NNC(=O)CCc2ccccc2)c(C)c1
7) COc1ccc(CCNC(=O)COC(=O)c2ccc(C)s2)cc1
8) CCc1ccc(NC(=O)Nc2cccs2)cc1
9) O=C(CCC1CCCN(C(=O)CC2=CCCCC2)C1)N1CCN(c2ccccn2)CC1 (stereo not given)
10) Cc1cccc(NC(=O)CCC(=O)N2CCOCC2)n1
Screen / compound no.	6	7	8	9	10
TRPV1 PAM	/	-6	-6	2	-1
D2 ag	-2.6	-4.2	2.5	0.1	-1.2
PINK1 modulator	0.5%	-1.2%	4.4%	-0.7%	0.8%
Sfp inh	-1%	/	50µM*	-1%	/
Six1-Eya2 inh	9	8	-14	1	0
CtBP-E1A blk	-4	4	-1	4	/
D2 potentiator	2	-18	-16	-2	-1

11) CC(C)(C)N(Cc1ccccc1)C(=O)COC(=O)c1ccccc1SCC(=O)N1CCCC1
12) CC(C)(C)[C@H]1C=C(C(=O)NCc2ccccc2)O[C@@H](OCc2ccc(CO)cc2)C1
13) COc1cc(OC)cc(-c2noc([C@H]3C[C@H](O)[C@@H](CO)O3)n2)c1
14) O=C(CSCc1c(Cl)cccc1Cl)Nc1ccccc1-c1ccccc1
15) C#CC[N+]1(CC#Cc2ccc(C#CC[N+]3(CC#C)CCOCC3)cc2)CCOCC1
Screen / compound no.	11	12	13	14	15
TRPV1 PAM	-21	?	/	2	-2
D2 ag	0.0	5.6	3.9	-1.2	0.5
PINK1 modulator	-2.4%	3.6%	2.3%	1.4%	0.2%
Sfp inh	/	-3%	/	-1%	13%
Six1-Eya2 inh	-7	4	3	8	10
CtBP-E1A blk	4	5	-23	17	-3
D2 potentiator	-69	-19	-2	-6	-15

11 entries from above, with bars between the fields:
# | SMILES | TRPV1 PAM | D2 ag | PINK1 modulator | Sfp inh | Six1-Eya2 inh | CtBP-E1A blk | D2 potentiator
5 | Cc1c(C(=O)N/N=C/c2ccc(N3CCOCC3)cc2)nc2ccccn12 | -2 | 3.4 | -0.3% | 12% | 0 | -16 | 3
6 | Cc1ccc(NNC(=O)CCc2ccccc2)c(C)c1 | / | -2.6 | 0.5% | -1% | 9 | -4 | 2
7 | COc1ccc(CCNC(=O)COC(=O)c2ccc(C)s2)cc1 | -6 | -4.2 | -1.2% | / | 8 | 4 | -18
8 | CCc1ccc(NC(=O)Nc2cccs2)cc1 | -6 | 2.5 | 4.4% | 50µM* | -14 | -1 | -16
9 | O=C(CCC1CCCN(C(=O)CC2=CCCCC2)C1)N1CCN(c2ccccn2)CC1 (stereo not given) | 2 | 0.1 | -0.7% | -1% | 1 | 4 | -2
10 | Cc1cccc(NC(=O)CCC(=O)N2CCOCC2)n1 | -1 | -1.2 | 0.8% | / | 0 | / | -1
11 | CC(C)(C)N(Cc1ccccc1)C(=O)COC(=O)c1ccccc1SCC(=O)N1CCCC1 | -21 | 0.0 | -2.4% | / | -7 | 4 | -69
12 | CC(C)(C)[C@H]1C=C(C(=O)NCc2ccccc2)O[C@@H](OCc2ccc(CO)cc2)C1 | ? | 5.6 | 3.6% | -3% | 4 | 5 | -19
13 | COc1cc(OC)cc(-c2noc([C@H]3C[C@H](O)[C@@H](CO)O3)n2)c1 | / | 3.9 | 2.3% | / | 3 | -23 | -2
14 | O=C(CSCc1c(Cl)cccc1Cl)Nc1ccccc1-c1ccccc1 | 2 | -1.2 | 1.4% | -1% | 8 | 17 | -6
15 | C#CC[N+]1(CC#Cc2ccc(C#CC[N+]3(CC#C)CCOCC3)cc2)CCOCC1 | -2 | 0.5 | 0.2% | 13% | 10 | -3 | -15

The list goes on:
16) Cc1cccc(C(=O)Nc2nc3ccc(S(C)(=O)=O)cc3s2)c1
17) CC(C)(C)OC(=O)N1CCC(CNC(=O)c2cccs2)CC1
18) COc1ccc(-c2cnc3cccnn23)cn1
19) CCOC(=O)N1CCN(C(=O)c2nc3ccccc3s2)CC1
20) COc1cccc(C(=O)NNC(=O)c2ccc3ccccc3c2O)c1
Screen / compound no.	16	17	18	19	20
TRPV1 PAM	-14	?	/	-8	/
D2 ag	-2.8	0.4	-1.5	0.6	-5.3
PINK1 modulator	8.6%	2.2%	0.4%	1.4%	3.2%
Sfp inh	12%	9%	/	18%	/
Six1-Eya2 inh	-12	5	3	0	-6
CtBP-E1A blk	8	11	8	4	/
D2 potentiator	1	-10	-4	30	-23

21) O=C(Cn1ccccc1=O)NCc1ccc(F)cc1
22) CCn1c(C)cc(=O)cc1-c1ccc(Cl)cc1
23) CC(=O)c1ccc(NC(=O)CSc2nnc(-c3ccncc3)o2)cc1
24) Cc1cc(C)c(O)c(CN(C)Cc2cc(Cl)cc(Cl)c2O)c1
25) Cc1ccc(-c2nnc(N(C)C(=O)C3CCCO3)s2)cn1 (stereo not given)
Screen / compound no.	21	22	23	24	25
TRPV1 PAM	5	25	-2	/	-5
D2 ag	-2.9	2.7	1.1	4.3	1.1
PINK1 modulator	3.1%	-0.8%	0.1%	?	-2.2%
Sfp inh	-1%	6%	/	/	-11%
Six1-Eya2 inh	6	-1	-7	?	2
CtBP-E1A blk	-5	-1	4	?	-1
D2 potentiator	-9	-11	-19	-8	10

26) NC(=O)C1CC(=O)N(c2ccc(OCC(=O)Nc3ccc(F)cc3)cc2)C1 (stereo not given)
27) CCCC1NC(=O)c2cccnc2-n2c1nc1cc(C)cc(C)c1c2=O (stereo not given)
28) Cc1cccc(/C=N\NC(=O)c2csnn2)c1
29) COC(=O)[C@]12CCCCC=C1N(Cc1cccc3ccccc13)C(=O)[C@H](CC(=O)NCCCCc1ccccc1)C2
30) O=C(COC(=O)CNS(=O)(=O)c1c(F)cccc1F)NC(=O)NC1CCCCC1
Screen / compound no.	26	27	28	29	30
TRPV1 PAM	-3	/	-2	/	23
D2 ag	-1.9	-8.3	-7.0	/	6.4
PINK1 modulator	-0.5%	1.0%	0.3%	-0.7%	1.5%
Sfp inh	/	/	40µM*	/	/
Six1-Eya2 inh	1	-1	3	-9	8
CtBP-E1A blk	/	0	-1	-11	1
D2 potentiator	-1	0	-49	/	-2

31) Cc1cccc(C)c1N1CCN(S(=O)(=O)N(C)C)CC1
32) COc1ccc(/C=N/N2C(=O)CSC2=S)cc1Br
33) O=C(Nc1ccc(-n2cccn2)cc1)C1CCN(Cc2ccsc2)CC1
34) COc1ccccc1NC(=O)CN1CCN(c2ccccn2)CC1
35) FC(F)(F)c1nc(NCc2ccccc2)c2nnn(Cc3ccccc3)c2n1
Screen / compound no.	31	32	33	34	35
TRPV1 PAM	5	-6	7	-7	8
D2 ag	1.6	-1.8	-2.3	?	7.0
PINK1 modulator	-0.5%	0.7%	0.2%	3.9%[38.3 µM]	5.8%
Sfp inh	9%	/	-1%	0%	4%
Six1-Eya2 inh	0	-17	1	0	-1
CtBP-E1A blk	8	/	-4	5	/
D2 potentiator	0	-2	-11	5	0

36) CCCSc1nnc(-c2c[nH]c3ccccc23)n1CC
37) COc1ccc(/C=C(\C#N)C(=O)NCc2cccs2)cc1OC
38) O=C(NCCCN1CCOCC1)c1ccc(Sc2ccccc2Cl)c([N+](=O)[O-])c1
39) Cc1ccc(S(=O)(=O)CCC(=O)OCC(=O)N(C)c2ccccc2)cc1
40) COc1ccccc1C(c1nnnn1CC1CCCO1)N1CCC(C(N)=O)CC1 (stereo not given)
Screen / compound no.	36	37	38	39	40
TRPV1 PAM	1	-2	-19	/	4
D2 ag	-0.1	-2.5	-2.9	-2.0	-0.8
PINK1 modulator	0.4%	8.6%	12%	6.8%	1.1%
Sfp inh	5%	-2%	-10%	/	21%
Six1-Eya2 inh	1	-7	-6	1	2
CtBP-E1A blk	-8	-21	3	5	6
D2 potentiator	-1	-8	-11	1	-1

41) Cn1nc(-c2ccc(Cl)cc2)c2cc(C(=O)N3CCN(c4ccccc4)CC3)sc21
42) CC(=O)Nc1ccc(S(=O)(=O)NCC(=O)OCC(=O)c2ccc[nH]2)cc1
43) CCN(CC(=O)Nc1c(F)cccc1F)C(=O)CCCOc1ccc(OC)cc1
44) COc1ccc(-c2csc3nc(-c4ccccc4)oc(=O)c23)cc1OC
45) Cc1ccc(NS(=O)(=O)c2ccc(CCC(=O)NCc3ccccn3)cc2)cc1
Screen / compound no.	41	42	43	44	45
TRPV1 PAM	/	/	2	?	-4
D2 ag	-4.5	-0.3	-1.3	2.1	0.7
PINK1 modulator	1.1%	2.2%	2.6%	1.0%&1.7%	-0.2%
Sfp inh	4%	/	/	?	-16%
Six1-Eya2 inh	1	-2	-6	2	-1
CtBP-E1A blk	0	-1	-4	3	-1
D2 potentiator	5	-8	21	-5	-6

46) COc1ccc(NC(=O)N(C)C[C@@H]2OCc3cnnn3CCCC(=O)N([C@@H](C)CO)C[C@H]2C)c(OC)c1
47) Cc1cc(C)cc(Nc2nc3c(S(=O)(=O)c4ccccc4)nnn3c3ccccc23)c1
48) O=C(CSC(=S)N1CCCC1)Nc1cc2c(cc1Br)OCCO2
49) COc1cccc(CN(C)C(=O)CCC(=O)c2cc(Br)ccc2OC)c1
50) CC(=O)Nc1ccc(S(=O)(=O)Nc2ccccn2)cc1
51) Cc1ccc(S(=O)(=O)N2CCN(C(=O)CSc3nnnn3C)C2)cc1
Screen / compound no.	46	47	48	49	50	51
TRPV1 PAM	/	20	10	/	-2	-11
D2 ag	-2.9	2.2	-6.2	-0.9	-0.3	-3.0
PINK1 modulator	0.1%	-0.3%	0.9%	2.7%	0.4%	-1.1%
Sfp inh	/	18%	3%	/	13%	10%
Six1-Eya2 inh	13	7	3	4	-10	5
CtBP-E1A blk	0	1	7	7	/	2
D2 potentiator	-2	-4	-7	1	-4	-8

Assay outcomes deposited in PubChem BioAssay by National Center for Advancing Translational Sciences (NCATS).
